# Source: PubChem BioAssay (National Center for Advancing Translational Sciences (NCATS))
# TRPML1 ag: qHTS for Agonists of the Human Mucolipin Transient Receptor Potential 1 (TRPML1); Mucolipin-1 (Homo sapiens), Q9GZU1; TRPML1-expressing cells, Ca2+ dye fluorescence, FDSS; host cell line not named in the record; reference of the full effect not given here; activation, % (test concentration not listed); 410,000 tested, 0.12% active; AID 624414, 2012; in the data active = activation above about 50%; inconclusive = about 30% to 50%; inactive = below about 30%; note: 0% is about no effect; the text of the record puts the active cut at 80%
# Target sequence (Q9GZU1 whole entry, looked up): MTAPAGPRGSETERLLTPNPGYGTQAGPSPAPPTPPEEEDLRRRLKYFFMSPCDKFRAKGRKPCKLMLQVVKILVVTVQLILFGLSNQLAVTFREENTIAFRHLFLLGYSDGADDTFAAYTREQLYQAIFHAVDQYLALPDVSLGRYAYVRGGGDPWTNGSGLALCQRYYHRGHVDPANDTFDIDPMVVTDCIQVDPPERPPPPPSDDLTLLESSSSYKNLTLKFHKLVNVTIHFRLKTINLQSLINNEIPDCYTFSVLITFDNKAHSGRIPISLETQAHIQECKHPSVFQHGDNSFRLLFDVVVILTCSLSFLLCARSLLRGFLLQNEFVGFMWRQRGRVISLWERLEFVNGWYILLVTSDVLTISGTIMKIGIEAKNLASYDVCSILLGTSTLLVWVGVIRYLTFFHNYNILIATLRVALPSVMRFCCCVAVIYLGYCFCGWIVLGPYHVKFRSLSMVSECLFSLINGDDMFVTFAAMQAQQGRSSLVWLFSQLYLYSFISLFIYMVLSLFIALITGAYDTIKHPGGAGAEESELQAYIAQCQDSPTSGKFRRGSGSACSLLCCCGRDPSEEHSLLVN
#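 In this qHTS format, compounds were pin-transferred onto Ca8-dye-loaded TRPML1-DL cells induced with Tet overnight, and intracellular Ca2+ fluorescence was recorded kinetically for 110 s after a 10 s baseline. A subsequent 4uM final 54-4 (EC80) addition followed by a second 110 s read served as the antagonist phase.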
# gsp antag: qHTS for Antagonists of gsp, the Etiologic Mutation Responsible for Fibrous Dysplasia/McCune-Albright Syndrome: qHTS; AID 624288, 2012; Potency, µM (titrated, usually from 76.9 µM), without a hit: top-dose activity change, negative = inhibition, hits mostly inhibitors; gsp-mutant cells, cAMP HTRF, 30 min; control for the full effect not named in the record; 340,000 tested, 0.4% active; active = falling curve of any shape with a large fitted effect; inconclusive = falling curve, mostly with a smaller effect; inactive = flat or rising curve; cell line not stated here;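 note: intracellular cAMP measured with PDE inhibitor Ro 20-1724 present during compound exposure; potency is the fitted concentration of half-maximal effect; % is set by controls: 0 for no effect and ±100 for the full control effect; nearly all actives have a fitted effect of over 65% in size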
#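 HTRF cAMP measurement after 30 min RT detection following 30 min, 37C compound treatment alongside […] (added as 300 uM solution) in G418-selected cells seeded at 2000/well and grown 16–24 h.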
# ClpP mod: qHTS Assay for Activators of ClpP; ATP-dependent Clp protease proteolytic subunit (Bacillus subtilis (strain 168)), P80244; purified B. subtilis ClpP, FRET peptide cleavage, 20 min; Potency, µM (top dose mostly 57.5 µM), for inactives: at the top dose activity change, negative = active; 340,000 tested, 1.9% active; AID 651965, 2013; active = well fitted falling curve with a large enough effect; inconclusive = small, poorly fitted or top-dose-only effect; inactive = no such curve, though single readings can be large or run the other way; note: potency is the fitted concentration of half-maximal effect; the source files actives as falling curves though it sought activators and does not explain the sign; nearly all actives have a fitted effect of over 65% in size; many hits overshoot -100%
# Target sequence (P80244 whole entry, looked up): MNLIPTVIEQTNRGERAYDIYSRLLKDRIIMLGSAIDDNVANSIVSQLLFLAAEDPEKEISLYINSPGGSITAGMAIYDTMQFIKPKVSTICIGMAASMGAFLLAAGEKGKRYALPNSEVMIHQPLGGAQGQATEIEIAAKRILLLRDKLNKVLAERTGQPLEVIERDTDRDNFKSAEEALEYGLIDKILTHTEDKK
#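 FRET quenching reversal measured ClpP activation: 10 microg/mL B. subtilis ClpP at pH 8 with the FRET-FV decapeptide, read at 430 nm after 320 nm excitation. The 20-min minus 0-min signal was scaled between DMSO/no-enzyme wells and ADEP (5.8 microM final).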
# Menin-MLL FL inh: qHTS Assay for Inhibitors Targeting the Menin-MLL Interaction in MLL Related Leukemias: Competition With Fluorescein Labeled MLL-derived Peptide; Fluorescence polarization, fluorescein-MLL peptide displacement from menin; FP activity change, % at 61.4 µM; 290,000 tested, under 10 active; AID 1766, 2009; inconclusive = falling polarisation curve, or a change in total fluorescence; inactive = total fluorescence flat and polarisation flat or rising; no compound was filed as active; the % refers to the polarisation; negative = inhibition;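 note: % of control where 0% means no effect; inhibitors lower the polarisation; unlabelled MLL peptide was the positive control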
# TRPML1 blocker: qHTS for Inhibitors of the Human Mucolipin Transient Receptor Potential 1 (TRPML1); Mucolipin-1 (Homo sapiens), Q9GZU1; TRPML1-inducible cells, Ca2+ dye fluorescence, FDSS; stronger effect = lower value; inhibition of EC80 agonist-evoked calcium signal; activity change, negative = inhibition, % (concentration not given with the values); 390,000 tested, 0.02% active; in the data active means activity change below about -50%; inconclusive means about -30% to -50%; inactive means above about -30%;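 note: stimulus is agonist 54-4 at its EC80 concentration; % is set by controls: 0 for no effect and ±100 for the full control effect; compound concentration not given in the record; the text of the record puts the active cut at -80%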
#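 TRPML1-DL cells, Tet-induced overnight (~16 h, 37 °C) at 1,500 cells/well, were loaded with Ca8 no-wash dye plus quencher for 45-90 min at room temperature. Compounds were pinned during FDSS kinetic reading; agonist 54-4 at EC80 (4 uM final) then added.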
# gsp ag: qHTS for Agonist of gsp, the Etiologic Mutation Responsible for Fibrous Dysplasia/McCune-Albright Syndrome: qHTS; gsp mutant cells, cAMP HTRF, 30 min; control for the full effect not named in the record; Potency, µM (titrated, usually from 76.9 µM), for inactives: at the top dose activation (cAMP increase), most hits filed as activators; 340,000 tested, 0.13% active; active = well fitted activation curve with a large enough effect; inconclusive = small, poorly fitted or top-dose-only effect, or another doubt; inactive = no such curve, though single readings can be large or run the other way; cell line not stated here;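 note: phosphodiesterase inhibitor Ro 20-1724 added with compounds to block cAMP breakdown; potency is the fitted concentration of half-maximal effect; nearly all actives have a fitted effect of over 60% in size; about a fifth of the inactives were tested at one dose only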
#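 Cells stably selected in G418 were plated at 2000/well, grown 16-24 hr, then given compounds in DMSO with the PDE inhibitor […] (300 uM solution added) for 30 min at 37C; cAMP was read by HTRF.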
# Numbers without * were called inactive; ? = inconclusive; / = no result given; & = joins results of further samples; [ ] = remark or other dose. Not a hit list; 2.1% or so of the library scored in one or more.
SMILES,TRPML1 ag,gsp antag,ClpP mod,Menin-MLL FL inh,TRPML1 blocker,gsp ag
CCN(C(=O)c1ccc(S(C)(=O)=O)cc1)C12CC3CC(CC(C3)C1)C2,0.8,0%,3.1%,-1.4,-12,-10%
Cc1onc(-c2c(F)cccc2Cl)c1C(N)=S,1.2,/,/,1.8,-11,-32%[15.4 µM]
COc1ccc(NCC(=O)N/N=C/C=C/c2ccccc2[N+](=O)[O-])cc1,1.0,-5%,-0.1%,-11,-1,-1%[15.4 µM]
Nc1nc(SCC(=O)Nc2ccccc2)[nH]c(=O)c1NC(=O)c1cccs1,-0.6,9%,0.2%,4.2,-4,1%
COc1ccccc1/C=C/C(=O)OCC(=O)N1CCc2ccccc21,0.5,-14%,?,/,-12,-7%
Cc1cc(-n2nc(C)cc2C)n2ncc(-c3ccccc3)c2n1,0.9,-7%,0.5%,4.7,13,-63%[inhibitor]
CCOC(=O)CCC1(C(=O)OC)C(=O)CCCCCC=C1C(=O)OC (configuration not stated),0.0,/,-1.9%,/,45,29%
COC(=O)c1cccnc1SCc1ccccc1,2.7,-12%,-1.6%,5.7,9,6%
COC(=O)c1ccc(NC(=O)CN(c2ccc3c(c2)OCO3)S(C)(=O)=O)cc1,0.4,4%,0.9%,7.1,22,-10%
O=C(Nc1ccc(F)cc1)c1cc(S(=O)(=O)Nc2ccc(F)cc2)cs1,1.6,-23%,-2.5%,3.6,-2,-4%
Cc1ccc(S(=O)(=O)NCCc2cn3c(C)csc3n2)cc1,-0.5,/,1.4%,/,15,/
CCOc1ccc(NC(=O)c2cc(C)nc3ccccc23)cc1,0.4,-3%,-0.2%,2.0,8,-3%
NS(=O)(=O)c1ccc(CCNCC(=O)N2CCC(Cc3ccccc3)CC2)cc1,/,1%,-2.6%,-0.3,/,13%
CC1(C)CC2=C(CO1)C(=S)NC(c1ccccc1)N2CC1CCCO1 (configuration not stated),0.8,4%,/,-0.4,7,-16%[15.4 µM]
COc1ccc(C(=O)CSc2nnc(-c3cnccn3)n2Cc2ccco2)cc1,1.4,-9%,-5.3%,4.8,15,5%
CC(=O)Cc1nsc(NC(=O)c2ccc(COc3ccccc3C)o2)n1,1.1,-11%,0.3%,2.9,21,-2%
CC1CCN(C2CCN(S(=O)(=O)c3ccc(C(F)(F)F)cc3)CC2)CC1,1.2,2%,/,?,4,-14%[15.4 µM]
COc1cccc(C(=O)NCCn2ccc3ccccc32)c1,0.2,-3%,-1.2%,1.5,17,-19%
O=C(NC1CCCC1)C(c1ccncc1)N(C(=O)c1ccco1)c1ccc(F)c(Cl)c1 (configuration not stated),0.0,4%,-5.3%,-1.7,3,17%[15.4 µM]
Cc1sc2nc(C3CC3)nc(N3CCN(C(=O)c4ccccc4F)CC3)c2c1C,-0.1,?,/,/,22,26%
CCC(Sc1nc2ccccc2c(=O)n1CCc1ccc(OC)c(OC)c1)C(=O)N(CC)CC (configuration not stated),2.4,/,-2.0%,/,4,/
O=S(=O)(CCn1cccc1)CCn1cccc1,1.8,14%,0.5%,0.9,-4,5%
O=C(CSC(=S)N1CCOCC1)c1ccccc1,-0.6,9%,0.7%,1.4,-14,-54%[inhibitor]
COc1cc(C=NNc2ccccc2)ccc1OC(=O)c1ccccc1,-0.6,/,-2.7%,/,8,0%
N#Cc1ccc(C2=CC(=O)C[C@H](c3ccc(Cl)cc3)C2)cc1,-0.3,2%,-4.1%,/,5,/
Cn1nc(C(F)(F)F)cc1C(=O)O,1.9,1%,/,4.8,-8,14%[15.4 µM]
CC(C)(Oc1ccc(Cl)cc1)C(=O)NC1CC1,1.2,10%,/,/,8,0%[15.4 µM]
CCOC(=O)/C=C/C(=O)OCC(=O)Nc1ccc(C)cc1,-0.1,-4%,/,-0.3,-24,29%
O=C(/C=C/c1ccccc1)Nc1ccc2c(c1)C(=O)NC2=O,-0.2,-2%,5.0%,2.3,-6,-14%
COc1cccc(CNc2nc3nc(C)cc(=O)n3[nH]2)c1,1.3,5%,-1.9%,-1.5,52,?
Cc1ccc(CCNC(=O)c2ccc3c(c2)nc2n3CCC(C)C2)cc1 (configuration not stated),0.7,/,-2.5%,/,-9,/
COCCCN1C(=O)c2ccc(C(=O)OCC(=O)N3CCN(c4ccccc4)CC3)cc2C1=O,3.0,-6%,/,/,0,-11%[15.4 µM]
O=C(c1ccccc1)c1cc2cc(Cl)ccc2[nH]1,0.4,-1%,/,1.3,13,?
c1ccc(SCCOCCN2CCOCC2)cc1,0.4,-7%,-5.4%,-6.4,-18,10%[15.4 µM]
CCOC(=O)N1CCN(S(=O)(=O)c2c(C)nc3sccn3c2=O)CC1,1.7,-3%,-19%,0.2,-4,?
COc1cc(/C=C(\C#N)c2nn(CCO)c(N)c2C#N)cc(OC)c1OC,1.5,17%,/,1.6,5,0%[15.4 µM]
Cc1ccc2c(CC(=O)NCc3ccc4c(c3)OCO4)coc2c1,1.2,4%,-1.3%,-1.0,-5,-18%
Cc1ccc(/C=N/Nc2ncnc3nc[nH]c23)cc1,-0.1,3%,-1.3%,0.1,14,3%
O=C(NCCO)C(F)(F)C(F)(F)C(F)(F)OC(F)(C(=O)NCCO)C(F)(F)F (configuration not stated),-0.2,8%,0.9%,0.6,5,-41%[inhibitor]
O=C(Nn1cnc2ccccc2c1=O)c1ccccc1,1.1,7%,/,4.6,2,-1%[15.4 µM]
CS(=O)(=O)NCCNc1ncc(C(F)(F)F)cc1Cl,-0.6,-1%,/,3.1,-5,0%[15.4 µM]
CC1CN(C(=O)CCC(=O)N2CCOCC2)c2ccccc2O1 (configuration not stated),0.3,8%,-2.0%,0.1,19,-16%
COc1ccccc1C1NC(=O)NC(C)=C1C(=O)OCC1CCCCC1 (configuration not stated),-0.3,/,-2.0%,/,12,-1%
COCCN(CCOC)S(=O)(=O)c1ccc(C(=O)Nc2nc(-c3ccccc3)c(C(=O)c3ccccc3)s2)cc1,-0.6,-19%,-0.5%,2.4,7,-17%
COc1ccccc1NC(=O)c1cccs1,-0.6,-1%,-1.6%,-1.4,-1,7%
Cc1cccc(NS(=O)(=O)c2ccc3[nH]c(=O)cc(C(=O)OC(C)C(=O)Nc4ccc([N+](=O)[O-])cc4)c3c2)c1 (configuration not stated),-0.5,-16%,-0.5%,3.3,-12,-25%
CCOCCCNC(=O)c1ccccc1SCC,0.4,5%,0.9%,-3.7,-6,5%
CN(Cc1ccccc1)C(=O)COC(=O)C1CCN(S(=O)(=O)c2ccc(Cl)c(C(F)(F)F)c2)CC1,4.6,-4%,/,/,42,5%[15.4 µM]
O=C(NCC1CCN(c2ccc(S(=O)(=O)N3CCOCC3)cc2)CC1)Nc1ccccc1,-0.5,/,/,-1.0,-15,-6%[15.4 µM]
O=C(Nc1ncc2c(n1)CC(c1ccco1)CC2=O)c1ccccc1 (configuration not stated),-0.8,4%,0.8%,1.0,8,-7%
Cc1ccc(CCNC(=O)CCS(=O)(=O)c2cc3c(cc2C)NC(=O)CO3)cc1,-0.2&2.1,2%,1.4%&4.2%,1.5,8&12,?
Cc1ccc(C)c(N2CCN(C(=O)CCS(=O)(=O)c3cc4c(cc3Cl)NC(=O)CO4)CC2)c1,1.7,/,0.1%,/,-10,/
COC(=O)C1C(=O)C=C(Nc2ccc(F)cc2F)CC1c1ccccc1 (configuration not stated),0.1,-11%,18%,2.3,1,-5%[15.4 µM]
Cn1c(=O)cc(OCCCC(=O)NCc2ccc(F)cc2Cl)c2ccccc21,0.7,-10%,/,-2.9,?,-32%[15.4 µM]
COCCCn1nnnc1SCC(=O)Nc1ccc2c(c1)OCCO2,2.3,-9%,1.6%,2.4,14,25%
Cc1cc(=O)n(-c2ccc(Cl)cc2)c(=O)[nH]1,-0.3,5%,/,-1.2,3,-19%
COc1ccc(CNC(=O)COC(=O)c2ccc(C)c(S(=O)(=O)N3CCOCC3)c2)cc1OC,-1.1,-5%,0.9%,/,-15,-4%
CCOC(=O)c1cccc(NC(=O)CN2C(=O)CC(C)(C)Sc3ccccc32)c1,0.2,/,1.4%,/,3,/
Cc1nc2ccccc2n1CCc1nc2c3ccccc3nc(SCc3ccc(C#N)cc3)n2n1,0.5,/,2.5%,/,-14,/
O=C(NCc1ccccn1)c1ccccc1OCc1ccccc1Cl,2.0,/,-1.0%,/,12,32%

# (more compounds)
SMILES,TRPML1 ag,gsp antag,ClpP mod,Menin-MLL FL inh,TRPML1 blocker,gsp ag
O=C(O)c1cc(NC(=O)c2ccc(Cl)c([N+](=O)[O-])c2)cc(C(=O)O)c1,-0.1,5%,/,-0.5,-10,-2%[15.4 µM]
COc1cc(C(=O)Nc2nc3nc(-c4ccccc4)cc(=O)n3[nH]2)cc(OC)c1OC,1.2,/,-3.0%,/,-18,/
COc1ccc(Cl)cc1Nc1nc(-c2sc(NC(=O)c3ccco3)nc2C)cs1,-0.6,-17%,-7.7%,11,2,1%
CCN(CC)S(=O)(=O)c1ccc(C(=O)N(c2ccc(C)cc2)C2C=CS(=O)(=O)C2)cc1 (configuration not stated),-0.7,11%,/,-1.1,4,1%
Cc1cc(=O)oc2cc(OCC(=O)Nc3ccc(S(=O)(=O)N(C)C)cc3)ccc12,-0.2,11%,3.5%,-2.5,10,28%
CCCCOc1ccc(S(=O)(=O)N2CCN(c3ccccc3OCC)CC2)cc1,-0.9,/,-1.2%,/,1,/
O=c1[nH]c(SCc2cccc([N+](=O)[O-])c2)nc2[nH]ncc12,0.8,7%,1.4%,0.5,15,13%
O=C(Nc1ccccc1C(=O)N1CCCCCC1)c1cccc(S(=O)(=O)N2CCOCC2)c1,-0.4,2%,-1.6%,0.4,-4,-37%[inhibitor]
O=S(=O)(NCCSCc1c(Cl)cccc1Cl)c1ccc2c(c1)OCCO2,2.1,-10%,-0.3%,0.9,1,6%
CC1CN(S(=O)(=O)c2ccc(C(=O)N3CCc4ccccc43)cc2)CC(C)O1 (configuration not stated),0.1,5%,-2.5%,/,-18,-13%
O=C(NCc1cccs1)C1CC(c2ccc(Cl)c(Cl)c2)=NO1 (configuration not stated),0.3,27%,1.4%,0.1,3,19%
